Vif TR-FRET: HIV-1 Vif–A3G interaction blockers – biochemical, TR-FRET, GST-Vif 1-94, biotin-A3G peptide, dose response retest, primary screen (AID 1117319) | inhibition, %, or IC50 in µM where a hit was titrated | TR-FRET GST-Vif / biotin-A3G peptide binding; higher % means a stronger effect; test concentration not given here; strong numbers were not always called active | 260,000 tested, 0.57% active;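 active = above the screen mean plus three standard deviations and confirmed in dose response; inconclusive = results disagree or hit not tested in dose response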;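 note: Vif residues 1-94 fused to GST binding biotinylated APOBEC3G peptide 110-148; 0% = full assay without inhibitor and 100% = GST in place of GST-Vif; retest series ran down from 100 µM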
A1 inh: inhibitors of the anti-apoptotic protein A1, read as caspase activation. 330,000 tested, 0.066% active. caspase activation, % (concentration not given with the values). MEF A1-2A-BIM cells, Caspase-Glo 3/7 luminescence, 3 h; percent of clofoctol response, vehicle zero. AID 2462;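 active = over half of replicate activation scores above 10%, or exactly half above 10 with the replicate mean above 10; inconclusive = replicate mean below 10 yet half the replicates above 10; inactive = over half of replicates below 10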;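 note: wells of about 30 µL received 50 nL stock; many hits fall short of the cut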
Beta apoptosis: beta cell apoptosis inhibition; INS-1E cytokine-induced death, ATP luminescence, 48 h; percent of positive-control rescue, neutral wells zero; AID 435005; protection from apoptosis, % (test concentration not listed); 300,000 tested, 0.8% active;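 active = all replicates at 75% or more, or half of them and the mean; inconclusive = half reach 75% but not the mean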;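 note: 0% = cytokine-treated negative control wells and 100% = positive control rescue; higher means more ATP so stronger rescue from cytokine killing; wells of about 40 µL received 100 nL stock; the first replicate is given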
Calb FLC: affects C. albicans growth with fluconazole; C. albicans CaCi-2 (fluconazole-resistant clinical isolate) + fluconazole, Alamar Blue growth, 48 h; AID 1979; 300,000 tested, 0.57% active; growth inhibition, % (concentration not given with the values);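 active = most replicates above 75%; inconclusive = exactly half above 75%; inactive = most below 75%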;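 note: all wells also contain fluconazole at 8 µg/ml as a sub-toxic cotreatment; 0% = median of DMSO wells and 100% = median of geldanamycin control wells; wells of about 8 µL received 7.5 nL stock; the first replicate is given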
T cruzi inh: T. cruzi replication inhibition; T. cruzi beta-gal in NIH3T3, luminescence, 90 h; inhibition, % (concentration not given with the values); 300,000 tested, 1.4% active; AID 1885;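 active = mean inhibition across valid replicates above about 55%, limit read from the data; inconclusive = mean below that limit but half or more replicates reach it; inactive = mean below it, under half of replicates reach it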;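 note: signal also drops with host cell toxicity which is not excluded here; 0% = plate median of DMSO wells and 100% = zero luminescence signal; higher percent means less beta-gal luminescence so fewer parasites; stock transfer was 50 nL into about 50 µL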
AF4-AF9 inh: MLL-AF4/AF9 protein interaction inhibition | P42568 | AlphaScreen, biotin-AF4 peptide binding to FLAG-AF9 | inhibition, % at 10 µM | 350,000 tested, 0.47% active;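 active = every replicate reaching a set inhibition limit, whatever the replicate mean, cut at about 25% in these data; inconclusive = mean inhibition reaches that limit but some replicates miss it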;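 note: 0% = plate neutral control median and 100% = total signal loss; the record names both 10 and 1 µM as test concentration; the first replicate is given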
RanGTP-Impb inh: disruptors of Ran-importin-beta complex formation – biochemical, FRET, CFP-Ran, YFP-importin-beta, homogeneous, primary screen; cell-free CFP-Ran/YFP-importin-beta FRET ratio; 300,000 tested, 1.1% active; AID 2216; inhibition, % (no concentration beside the values);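 active = most replicates above 15%; inconclusive = exactly half above 15%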;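 note: 0% = DMSO wells and 100% = Ran loaded with GDP instead of GTP; wells of about 40 µL received 100 nL stock; the first replicate is given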
LANA-H2A inh: blocks KSHV LANA binding to histone H2A/H2B | Q9QR71 | 320,000 tested, 0.6% active | inhibition, % (test concentration not listed) | cell-free LANA-H2A/H2B peptide, fluorescence polarization; in the data active = inhibition mostly above about 10%, no sharp cut-off; inactive = mostly below about 6.7%;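 note: stock transfer was 7.5 nL into about 10 µL; 0% = median of vehicle wells and 100% = median of positive control wells; one replicate is shown; the record names a cut of 25% in any replicate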
Target sequence (Q9QR71 whole entry, looked up): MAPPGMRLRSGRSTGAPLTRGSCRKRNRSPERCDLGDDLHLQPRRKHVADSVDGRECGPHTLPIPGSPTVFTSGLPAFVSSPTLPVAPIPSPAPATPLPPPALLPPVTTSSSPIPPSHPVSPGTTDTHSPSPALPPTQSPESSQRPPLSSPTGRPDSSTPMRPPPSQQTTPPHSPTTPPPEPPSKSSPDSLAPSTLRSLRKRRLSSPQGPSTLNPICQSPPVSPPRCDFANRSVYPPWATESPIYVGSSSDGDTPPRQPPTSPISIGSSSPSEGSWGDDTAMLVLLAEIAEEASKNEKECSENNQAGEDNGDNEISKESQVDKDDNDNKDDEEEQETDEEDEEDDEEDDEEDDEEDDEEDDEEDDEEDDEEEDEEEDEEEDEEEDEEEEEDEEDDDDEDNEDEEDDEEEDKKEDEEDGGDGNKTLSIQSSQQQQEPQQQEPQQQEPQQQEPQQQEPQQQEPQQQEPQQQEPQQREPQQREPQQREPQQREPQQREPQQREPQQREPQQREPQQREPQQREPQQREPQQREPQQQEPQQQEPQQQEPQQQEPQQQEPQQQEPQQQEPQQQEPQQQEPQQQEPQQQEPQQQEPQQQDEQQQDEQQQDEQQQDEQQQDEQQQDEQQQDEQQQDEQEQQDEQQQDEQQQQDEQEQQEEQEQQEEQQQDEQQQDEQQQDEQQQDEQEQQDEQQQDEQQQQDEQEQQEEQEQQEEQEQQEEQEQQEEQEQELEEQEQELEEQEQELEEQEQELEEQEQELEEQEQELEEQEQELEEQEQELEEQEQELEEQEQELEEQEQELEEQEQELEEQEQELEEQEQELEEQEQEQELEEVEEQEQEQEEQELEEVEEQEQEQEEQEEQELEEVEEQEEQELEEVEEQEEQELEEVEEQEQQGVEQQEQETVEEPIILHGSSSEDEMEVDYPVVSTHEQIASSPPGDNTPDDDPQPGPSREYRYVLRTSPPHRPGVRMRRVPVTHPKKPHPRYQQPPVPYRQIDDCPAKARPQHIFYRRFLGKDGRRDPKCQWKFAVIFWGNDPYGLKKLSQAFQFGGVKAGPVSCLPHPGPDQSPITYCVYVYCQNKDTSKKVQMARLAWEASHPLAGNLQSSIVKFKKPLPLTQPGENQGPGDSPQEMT
* = called active by the depositor; ? = inconclusive; / = not tested or not shown.

SMILES	Vif TR-FRET	A1 inh	Beta apoptosis	Calb FLC	T cruzi inh	AF4-AF9 inh	RanGTP-Impb inh	LANA-H2A inh
CCOC(=O)C1CN(S(C)(=O)=O)c2cc(CC(=O)OC)ccc2O1 (stereo not given)	-2.5%	0.8	2.9	0.7	1.8	0.5	-0.6	2.1
COCCNC(=O)C(c1ccc(C)o1)N(CC1CCCO1)C(=O)Cn1nnc2ccccc21 (stereo not given)	-0.6%	-0.9	-13.7	-2.9	12.0	/	0.9	0.5
COC(=O)C1=C(C(=O)OC)[C@@H]2N(C)c3ccc(OC)cc3[C@@]23C[C@@H](C(=O)OC)N(C(=O)COCc2ccccc2)C3=N1	/	-1.8	/	0.5	0.3	11.5	-2.5	-2.6
O=C(Cn1cc([N+](=O)[O-])ccc1=O)NCc1ccc(Cl)cc1Cl	/	0.5	-0.1	-15.8	0.4	-0.8	4.5	5.1
NC(=O)c1c(NC(=O)C2CC=CCC2C(=O)O)sc2c1CCCCC2 (stereo not given)	/	0.3	2.3	/	-9.1	-3.9	/	2.9
COc1ccc(CCNC(=O)c2cccc(-n3cnnn3)c2)cc1	-16.1%	-0.9	-3.0	/	/	-1.6	/	-1.8
CC(C)CC(NS(=O)(=O)OCC(Cl)(Cl)Cl)c1ccccc1 (stereo not given)	/	-0.4	3.0	-11.8	15.0	-1.8	2.6	-8.0
O=C(Nc1ccccc1N(C(=O)c1ccco1)S(=O)(=O)c1cccs1)c1ccco1	-1.7%	-1.0	0.4	9.5	10.2	/	3.4	-5.7
Cc1nn(CC(=O)NCCCN2C(C)CCCC2C)c(=O)c2cc3occc3n12 (stereo not given)	/	0.9	-8.4	-1.7	24.5	-20.1	13.0	-1.4
Cc1ccc(C(=O)C[n+]2cccc3cc(C)ccc32)cc1	20.0%	-0.5	5.9	-7.1	58.1*	0.7	-4.8	4.1
CCOC(=O)Cn1c(-c2ccc(Cl)nc2)nc2ccccc21	9.0%	1.1	-0.5	-3.0	-17.2	/	2.1	-0.6
COc1ccccc1NS(=O)(=O)c1cccc(C(=O)NCc2ccco2)c1	-15.3%	0.3	-2.0	1.6	-12.3	1.7	3.0	-4.8
COc1ccc(C2OCC3(CO2)SC(N)=NC3=O)cc1 (stereo not given)	-6.9%	-0.1	-8.7	-16.4	-6.0	-3.7	0.3	-5.6
COc1cc(OC)cc(C(=O)OCC(=O)N2CCCC2)c1	/	0.1	1.9	-1.2	-9.9	-11.2	-1.6	3.1
COc1ccc(OC)c(NC(=S)N2CCN(C(=O)C3CCCO3)CC2)c1 (stereo not given)	/	1.4	-4.6	-9.5	-2.2	-1.2	-5.8	1.2
CCOc1ccccc1C(=O)N(Cc1ccccc1)Cc1cc2cc3c(cc2[nH]c1=O)OCCO3	/	0.5	-12.2	23.7	-14.4	/	-7.0	6.5
CCOC(=O)N1CCN(S(=O)(=O)c2ccc3c(c2)SC(C)C(=O)N3)CC1 (stereo not given)	8.1%	0.4	6.1	-6.3	9.0	/	-5.0	-3.9
COc1cc(/C=C/C(=O)OCC(=O)c2c(N)n(C)c(=O)n(C)c2=O)ccc1O	-7.3%	0.3	1.0	-7.5	-23.4	-0.7	-2.0	-4.2
CC(C)(C)OC(=O)N1CCC(CNC(=O)c2ccccc2)CC1	-4.6%	-0.1	1.0	-3.1	-4.5	-1.2	3.6	16.5
CN(C)S(=O)(=O)c1ccc(C(=O)NCc2cccs2)cc1	7.7%	0.0	-1.8	31.1	-18.0	/	0.7	3.6
Cc1cnccc1NC(=O)c1cccs1	7.6%	0.7	0.8	-2.0	-14.6	-1.5	2.4	-2.9
CCc1nnc(NC(=O)CN2CCN(Cc3cccc(F)c3)CC2)s1	/	-0.5	-2.9	-4.1	17.8	-0.1	-1.5	-4.4
Cn1c(NNC(=O)C(c2ccccc2)c2ccccc2)cc(=O)n(C)c1=O	/	-0.3	-4.2	-0.5	-5.9	-2.1	-3.1	/
CCOc1cc(NC(=S)Nc2cccc(OC)c2)c(OCC)cc1NC(=O)C(C)C	-0.5%	0.1	-3.4	6.7	31.6	/	2.6	3.8
C/C(=N/NS(=O)(=O)c1ccc(C)cc1)c1c(O)c2ccccc2oc1=O	0.8%	-0.8	-1.8	6.8	-2.4	5.7	-3.4	4.4
O=C(O)CS(=O)(=O)c1ccc(Oc2ccc(S(=O)(=O)CC(=O)O)cc2)cc1	/	0.3	-2.6	-1.4	0.0	/	2.0	-3.4
O=C(NCCCn1ccnc1)c1ccc(S(=O)(=O)Nc2ccccc2)cc1	-16.0%	0.1	-2.4	7.9	-10.5	6.2	2.3	1.3
Cc1nc(SCC(=O)NCCc2ccccc2)c2c(=O)n(C)c(=O)n(C)c2n1	9.5%	0.0	7.5	1.0	-7.3	0.5	0.8	1.9
CC(C)CC(NC(=O)C1CCCN1C(=O)[C@@H](C)NC(=O)OCc1ccccc1)C(=O)NCC(N)=O (stereo not given in full)	-10.9%	1.4	-8.1	-10.6	-8.8	-1.5	-3.7	1.6
CCCCN(C(=O)c1c(CC)noc1C)c1c(N)n(CCC)c(=O)[nH]c1=O	-0.4%	0.1	1.0	-9.7	1.4	-17.3	-3.5	3.7
O=C(NC1CC2CCC1C2)c1ccco1 (stereo not given)	/	-0.2	0.1	5.0	-15.9	-1.5	2.4	-1.4
CCCOc1ccccc1NC(=O)Nc1ccccc1Cl	/	0.2	3.6	14.5	-40.1	-1.9	-1.9	1.2
COc1ccccc1CNC(=O)c1oc2ccccc2c1C	/	2.0	-6.7	-3.1	-7.8	-6.7	0.3	2.4
COC(=O)c1ccsc1NC(=O)c1ccc(Cl)s1	/	-0.8	-0.9	3.6	-0.1	6.3	3.8	-1.6
c1ccc2c(CNc3ccc(CNc4ncn[nH]4)cc3)cccc2c1	18.4%	?	5.5	-7.0	15.6	/	-0.4	2.0
Cc1ccc(N2CCN(Cc3ccccc3)CC2=O)c(C)c1	/	-1.2	-5.8	-4.9	-2.5	1.9	-2.4	1.2
CN(C(=O)c1c(Cl)nc2sccn12)C1CCCCC1	12.2%	1.0	3.2	7.9	-6.5	3.4	-4.8	2.3
CCOc1cc(Cl)c(NC(C)=O)cc1OCC	-2.0%	-1.0	-1.3	-4.9	-7.7	/	-2.0	-1.1
CN(CCOc1ccccc1)C(=O)c1cc([N+](=O)[O-])cc([N+](=O)[O-])c1	/	0.7	-8.6	46.5	64.3*	2.0	-2.7	4.3
COc1ccccc1OCCC(=O)Nc1nc(C)cs1	?	-0.5	-4.5	10.8	10.2	-2.4	2.6	1.3
Cc1csc(SCC(=O)Nc2cccc3nsnc23)n1	-0.3%	?	-11.3	/	/	/	/	1.6
COc1ccc(S(=O)(=O)N2CCC(C(=O)NCc3cccnc3)CC2)cc1OC	/	0.2	-5.4	-2.0	-10.5	-0.1	4.0	0.9
c1ccc(NC2=NCCN2CCC2CCCC2)cc1	/	1.3	-0.5	-3.4	-5.7	3.9	2.1	0.6
Cc1cc(OCC(=O)OCC(=O)NC2CCCCC2C)ccc1Cl (stereo not given)	-14.9%	-0.2	-1.9	/	/	-0.1	/	-2.5
COc1ccc(N2CCN(C(=O)COC(=O)/C=C/c3ccc(C(F)(F)F)cc3)CC2)cc1	-1.1%	-0.4	-7.5	0.2	-8.2	-11.1	3.7	4.1
COC(=O)c1ccc2nc(C)cc(Nc3ccccc3C)c2c1	3.3%	-0.2	5.5	3.5	12.4	-2.5	?	-0.8
CCCC1(C(=O)O)NC(c2ccc(OC)cc2O)C2C(=O)N(c3ccc(OC)cc3)C(=O)C21 (stereo not given)	72.2%	0.1	-5.7	-1.5	-23.6	1.4	-0.5	-0.6
CCCOC1CCCN(C(=O)c2ccc(OC)c(OC3CCN(C(C)C)CC3)c2)C1 (stereo not given)	/	0.4	-6.1	1.7	3.8	0.4	1.3	2.2
Cc1ccccc1OCC(=O)NNC(=O)c1ccc(-n2cncn2)c([N+](=O)[O-])c1	-0.9%	0.3	-4.3	1.7	14.2	-4.4	3.5	-3.2
COc1ccc(Cl)cc1NC(=O)CN(C)C(=O)c1ccc2c(c1)CC(c1ccccc1)OC2=O (stereo not given)	1.1%	-0.8	2.7	/	/	0.4	/	-0.6
The list continues.
SMILES	Vif TR-FRET	A1 inh	Beta apoptosis	Calb FLC	T cruzi inh	AF4-AF9 inh	RanGTP-Impb inh	LANA-H2A inh
Cc1ccc(OCC(=O)NCCc2c[nH]c3ccccc23)cc1	16.1%	-0.9	-2.7	11.2	1.5	2.9	0.1	/
CCc1ccc(-c2cc(C(=O)Nc3ccc(S(=O)(=O)NC(C)=O)cc3)c3ccccc3n2)cc1	>100µM*	0.5	2.0	-1.5	-6.6	/	-0.8	-1.4
COC(=O)c1nc(NC(=O)c2ccc(Cl)cc2)n[nH]1	4.7%	-1.4	2.7	6.2	-12.7	/	0.6	4.2
CC1CCN(c2c(NCc3ccc(C(=O)NCc4cccnc4)cc3)c(=O)c2=O)CC1	1.2%	0.1	6.6	-11.4	-9.3	0.3	?	-4.3
Cc1ccc(NC(=O)[C@H](C)NC(=O)C2CCN(C(=O)[C@@H](N)C(C)C)CC2)cc1	0.3%	0.3	-6.4	-1.5	1.9	2.0	2.9	0.2
CC1(C)Cc2ccccc2C(=NCCCC(=O)O)N1	7.9%	0.5	-2.7	-5.6	-3.9	/	1.8	-3.1
CCOC(=O)C1CCCN(c2cc(C)nc3cc(-c4ccc(F)cc4)nn23)C1 (stereo not given)	-3.7%	-0.3	-2.0	104.1*	15.0	/	-5.6	-4.0
CCc1ccc(NC(=O)C2CCCN(S(=O)(=O)c3ccc4c(c3)CC(C)N4C(C)=O)C2)cc1 (stereo not given)	/	-0.3	-1.8	-10.4	14.6	-0.7	-0.8	2.6
CNC(C)C(=O)NC(C(=O)N1CCCC1C(=O)NNc1ccccc1)C(C)C (stereo not given)	/	2.0	5.0	/	/	4.8	/	-1.2
COc1ccc(S(=O)(=O)N(CC(=O)Nc2ccccc2C(=O)N2CCOCC2)c2ccc(F)cc2)cc1	/	0.1	2.6	6.9	-7.9	-9.4	?	8.6
CS(=O)(=O)Nc1ccc(C(=O)NCCC2=CCCCC2)cc1	1.1%	0.7	-1.3	-1.0	-9.4	/	-3.9	0.2
O=C(CSc1nnc(COc2ccccc2)o1)c1ccccc1	22.9%	-0.1	-3.2	19.4	-7.2	/	-0.3	-0.9
Cc1ccc(NC(=O)COC(=O)/C=C/c2cccs2)c(C)c1	0.5%	-2.6	0.2	-7.4	-17.2	/	1.2	-0.3
O=S(=O)(Nc1ccccc1N1CCCCC1)c1ccc(F)cc1	/	0.3	3.8	-3.3	8.9	-9.4	5.3	-4.4
CC(C)C(=O)Nc1ncc(C(F)(F)F)cc1Cl	-4.5%	-0.1	-8.8	-8.5	-7.9	/	0.1	2.7
CCOC(=O)C1=C(c2ccccc2)NC(=O)NC1c1ccc(OCC#N)c(OC)c1 (stereo not given)	-0.4%	-0.9	0.6	5.0	-13.0	/	3.1	3.8

Screening data as filed in PubChem.

Compounds were not picked by outcome; overall some 4.3% were active at least once.
